High-throughput results deposited in PubChem BioAssay by ICCB-Longwood Screening Facility, Harvard Medical School.
KSHV LANA nucl: inhibitors of KSHV LANA-nucleosome binding, primary screen, biochemical, fluorescence polarization, FITC-LANA1-23, chicken nucleosomes. FITC-LANA1-23 / chicken nucleosome fluorescence polarization; active compounds read low. AID 720717, 2013. 51,000 tested, 0.3% active. z-score (no concentration beside the values);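 active means both repeat wells score below -2 in polarization z-score versus plate sample wells, excluding overly bright wells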;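 further: 100 nL library stock added to about 30 µL; numbers are from one replicate; some results filed as inactive read as strong as hits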
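System – purified chicken nucleosomes with FITC-labelled LANA N-terminal peptide (1-23) · Amount – 240 nM purified chicken nucleosomes (480 nM peptide binding sites), final · Also added – 50 nM FITC-LANA1-23 probe · Medium – TEN-BT buffer, pH 7.5 · Incubation – compound with peptide–nucleosome mix 10–45 min at room temperature · Detection – fluorescence polarization, ex 480 nm, em 535 nm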
Ab BasE inh: BasE siderophore enzyme inhibitors, primary screen, biochemical, Acinetobacter baumannii ATCC 17978, fluorescence polarization; purified BasE, fluorescence polarization binding displacement; inhibition, % (concentration not given with the values); 84,000 tested, 0.1% active; AID 485350, 2010;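 active means both replicates above 25% with normal brightness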;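 further: 0% = negative plate control signal and 100% = positive plate control signal; stock transfer was 100 nL into about 30 µL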
An asterisk follows results filed as active; nt = no result given; & = joins results of further samples. These rows are one share of the data; rates above refer to the full screens.

structure,KSHV LANA nucl,Ab BasE inh
O=C(Cn1c(=O)sc2ccccc21)Nc1nc2c(s1)CCCC2,0.022,0.2
CC/C=C\C/C=C\C/C=C\C/C=C\C/C=C\CCCC(=O)OCC,-0.394,nt
CC1CCN(Cn2nc(-c3ccc(F)cc3)oc2=O)CC1,nt,0.5
COc1ccccc1N1CCN(CC(=O)N2CCCC2)CC1,-0.89,2.0
Cc1ccc(NC(=O)CC(C)N2CCCC2)cc1 (stereo not given),-1.62,nt
CCOC(=O)c1sc(N/N=C/C2CC=CCC2)nc1C (stereo not given),0.125,-1.4
C=CCN1C(=O)C(C)(C)N(C(C)=O)c2ccccc21,2.52,-1.4
O=C(CN1CCCC1)Nc1ccc(F)cc1,0.583,-0.9
COC(=O)c1cc(OC)c(OC)cc1NC(=O)CC1CCCCC1,0.264,1.2
Cc1ccnc(NCn2cnc3ccccc32)c1,-0.379,4.8
C=CCn1c(=S)[nH]c2ccccc21,nt,3.9
O=C(CSc1ccc2c(c1)OCCO2)NCC1COc2ccccc2O1 (stereo not given),nt,0.4
O=C1NS(=O)(=O)c2ccccc2S(=O)(=O)c2ccccc21,0.146,-0.5
CCCN1C(=O)/C(=N\OCC(=O)N2CCCc3ccccc32)c2ccccc21,nt,-0.1
N/N=C/C1=C(N2CCOCC2)C(=C\c2ccccc2)/CC1,nt,-0.7
CCCCN(c1ncnc2onc(-c3ccc(F)cc3)c12)C1CCN(C(C)=O)CC1,nt,-0.1
COCCOC(=O)c1c(C)oc2cc(Br)c(OCC(=O)c3ccc(OC)cc3)cc12,0.184,5.8
CCOC(=O)c1csc(-c2sccc2COc2ccccc2)n1,0.273,1.9
CCCc1cc2c(=O)c(-c3csc(C)n3)coc2cc1O,nt,0.7
COc1cccc(CNS(=O)(=O)c2ccc3c(c2)OCC(C(=O)N2CCCCC2)O3)c1 (stereo not given),-0.145,2.5
CCN(CC)Cc1c(C(C)(C)C)oc(C)c1C(=O)O,0.37,-2.4
CSc1ncccc1C(=O)OCC(=O)N1CCCC1,nt,-0.8
CCc1ccc(CN(Cc2cccnc2)C(=O)c2cnc(C)cn2)cc1,nt,1.4
NC(=O)c1nc(-c2cccnc2)nc2c1[nH]c(=O)n2-c1ccccc1,1.52,0.3
CN(C)S(=O)(=O)c1ccc(N2CCC(C(=O)O)CC2)cc1,-0.149,0.4
O=S(=O)(Nc1ccc(N2CCCCC2)cc1)c1ccccc1C(F)(F)F,nt,-2.4
O=C(Nc1ccc2c(c1)OCCO2)c1ccc(CSc2ncn[nH]2)cc1,nt,-2.4
COc1ccc(C=Nc2ccc3c(c2)nc(C)n3C)cc1,-0.432,1.1
CC(C)Cn1c(O)c(N=NC(=O)c2cccnc2)c2ccccc21,nt,-1.0
O=C1NC(=O)C2C3c4ccccc4C(c4ccccc43)C12 (stereo not given),-0.605,3.4
O=c1c2ccccc2nnn1CSc1ncnc2ccccc12,nt,0.0
COc1ccc2c(CC(=O)OC(C)C(=O)NCc3ccc4c(c3)OCO4)coc2c1 (stereo not given),nt,-0.6
Cc1nc(SCC(=O)NCc2cccs2)n(C2CCCCC2)c1C,nt,-2.1
CN(C)C(CNC(=O)c1ccccc1Cl)c1ccccc1 (stereo not given),nt,0.4
CC(C)(C)c1ccc(Cn2cnc(C#N)c2C#N)cc1,-0.077,nt
CN1C(=O)/C(=C2/Sc3ccccc3N2C)SC1=NC1CCCCC1,0.536,-1.7
CC(C)(C)S(=O)(=O)/C(C#N)=C/Nc1ccc(Cl)cn1,-0.249,1.1
O=C(NC(=S)Nc1ccc(-c2nc3ccccc3o2)cc1)c1ccccc1,-0.108,0.4
Cc1cc(C)n(C(=O)CNC(=O)Cc2ccccc2)n1,-1.1,1.5
CCC(C)NC(=O)C1c2ccccc2C(=O)N1Cc1ccccc1 (stereo not given),0.518,1.2
Cc1ccccc1C(=O)N1CCc2ccccc2C1,0.015,0.5
CCOc1ccc2c(CC)cc(=O)oc2c1C,0.0925,0.6
COc1ccc(C2C3=C(CCCC3=O)NC3=C2C(=O)c2ccccc23)c(OC)c1OC (stereo not given),-0.506,-1.9
Brc1ccc2cc(Oc3cnccn3)ccc2c1,nt,1.8
Cc1nnc(Cl)c2ccccc12,-0.669,14.9
CN(c1ccccc1)c1nc(OC(C(F)(F)F)C(F)(F)F)nc(OC(C(F)(F)F)C(F)(F)F)n1,1.19,-0.1
CC1(C)CC(=NNC(=O)c2n[nH]c3c2CCC3)CC(C)(C)N1,-0.625,1.0
COCC(C)n1c(C)cc(C(=O)Cn2ncc(Cl)c(Cl)c2=O)c1C (stereo not given),nt,1.7
CCOc1cc(C2N(C)C(=O)c3ccccc3N2C)ccc1O (stereo not given),0.784,0.8
CCOc1ccc(NC(=O)C(C)N(c2ccc(OCC)cc2)S(C)(=O)=O)cc1 (stereo not given),-0.677,2.1
c1csc(-c2nc(N3CCN(Cc4ccc5c(c4)OCO5)CC3)c3ccccc3n2)c1,nt,0.9
CC(=O)N1CN(C(C)=O)C(O)C1O (stereo not given),-0.645,1.5
Cc1cc(I)ccc1NC(=O)c1ccc2c(c1)SC1=NS(=O)(=O)CCN12,nt,-1.6
CC(C)(C)C(=O)COC(=O)Cn1nc(C(N)=O)c2ccccc2c1=O,nt,2.4
CCSc1nnc(-c2sc3ccccc3c2Cl)o1,nt,-0.1
CCC(=O)N1N=C(c2ccc(NS(C)(=O)=O)cc2)CC1c1ccccc1 (stereo not given),0.289,2.0
CCCCn1c(CCC(=O)Nc2ccc(NC(C)=O)cc2)nc2cc(S(=O)(=O)N(C)C)ccc21,nt,-4.4
Cn1c(C(=O)N(Cc2ccccc2)Cc2cccs2)cc2sccc21,-0.231,-1.8
Nc1c(C(=O)NC2CCCC2)c2nc3ccccc3nc2n1/N=C/c1cccnc1,-0.756,nt
O=c1nc2c3ccccc3ncn2[nH]1,nt,3.7

Next section:
structure,KSHV LANA nucl,Ab BasE inh
CC1(C)CC(=O)c2c(C(=O)O)coc2C1,nt,-1.5
O=C1c2ccccc2-c2n[nH]c(=O)c3ccc(N4CCOCC4)c1c23,nt,1.8
O=C(O)CCCc1cccs1,nt,0.0
CN(C)C(=O)CSc1nnc(-c2ccc(O)cc2)o1,-2.01,0.2
CC(C)Cn1c(-c2ccc(Cl)cc2)cnc1SCC(=O)N1CCCC1,0.555,0.1
COc1ccc(Cl)cc1NC(=O)CN1CCN(S(=O)(=O)N(C)C)CC1,0.116,0.1
CCOC(=O)c1ccc(NC(=O)NCc2noc3ccc(C)cc23)cc1,-0.667,2.6
CCCOc1ccc(-c2ccc(C(=O)O)cc2)cc1,nt,0.2
Cc1csc(=O)n1CC(=O)Nc1ccccc1,nt,1.7
CNC(=O)CSc1ncn[nH]1,2.2,nt
O=S(=O)(c1cccc2nsnc12)N(CCOc1ccccc1)C1CCCCC1,0.781,-0.7
CCCCS(=O)(=O)NC1CCCCCCC1,0.253,1.5
CCN1CCN(C(=S)Nc2ccccc2)CC1,0.447,4.8
CCn1c(C)c2c(C)nn3cc(C)cc3c2c1C,-1.19,5.0
CC1CCCCC1NC(=O)COC(=O)COc1ccccc1F (stereo not given),nt,2.1
O=C1COc2c1c1c(c3oc(=O)ccc23)C(=O)CO1,1.25,6.2
O=C(CO/N=C/c1ccco1)Nc1cccc(I)c1,nt,0.7
CCN(CC)c1ccc(/C=N/NC=O)c(O)c1,nt,-2.7
COC(=O)c1c(C)oc2cc(C)c(NS(=O)(=O)c3cccs3)cc12,nt,-1.5
CCN(Cc1ccc(OCc2cccs2)c(OC)c1)C(=O)c1cc(C)oc1C,nt,0.9
O=C(Cc1ccccc1F)Oc1ccc(-c2nnco2)cc1,nt,1.3
CC1CC(C)CN(C(=O)c2cccc3c2-c2ccccc2C3=O)C1 (stereo not given),0.262,-1.0
CCCC1NC(=O)NC(C)=C1C(=O)OCC (stereo not given),-0.417,3.0
C/C(=N\S(=O)(=O)c1ccc(C)cc1)N1CCCN(S(=O)(=O)c2ccc(C)cc2)C1C(C)C (stereo not given),nt,1.0
CCOC(=O)CCn1cc(F)c(=O)[nH]c1=O,nt,2.4
CCc1nnc(NC(=O)c2ccc(S(=O)(=O)N(CC)CC)cc2)s1,0.529,5.3
S=C(N/N=C/c1ccco1)NC1CC2CCC1C2 (stereo not given),-0.135,3.3
CCCN(Cc1nnc(-c2ccco2)o1)C(=O)CN1C(=O)COc2ccccc21,nt,0.6
COc1c2ccoc2nc2c(OC)c(OC3OC(C)C(O)C(O)C3O)ccc12 (stereo not given),0.67,-1.9
Cc1onc(-c2ccccc2Cl)c1NC(=O)NCCc1ccncc1,0.223,1.3
CC(C)=C1C2C=CC1C1C(=O)N(CCO)C(=O)C21 (stereo not given),0.069,1.0
CC1=C(C(=O)NC2CCCCCC2)C2(CCCCCC2)OC1=O,-0.655,1.0
O=C(CN1C(=O)NC2NC(=O)NC21)N/N=C/c1ccccc1O (stereo not given),0.575,3.5
COC(=O)COc1ccc(C)cc1-n1nc2ccccc2n1,-0.564,1.8
CNC(=S)NNc1ncc(C(F)(F)F)cc1Cl,nt,2.0
O=C(Nc1ncc(Cc2ccccc2)s1)C1CCCO1 (stereo not given),-0.0765,-0.7
O=C(O)CCP(=O)(O)CN1CCCCCC1,nt,1.9
CC(=O)N1CCN(Cc2ccccc2F)CC1,0.498,-1.4
COc1ccc(-n2nnnc2-c2c[nH]c3ccc(Cl)cc23)cc1,nt,1.2
COC(=O)c1ccc(/C=C2/SC(=O)N(C(C)C(=O)OC)C2=O)cc1 (stereo not given),0.889,3.1
Cc1ccc(-c2noc(COC(=O)c3nn(-c4ccccc4C(F)(F)F)cc3O)n2)cc1,nt,0.9
O=C(CCS(=O)(=O)c1ccccc1)Nc1ccc2sccc2c1,-1.4,-9.6
O=C(c1ccc2c(c1)N(Cc1ccccc1)C(=O)c1ccccc1S2=O)N1CCN(Cc2ccccc2)CC1 (stereo not given),-0.067,-2.0
CCOC(=O)N1CCC(n2c(SCC(=O)NCc3ccccc3)nc3ccccc3c2=O)CC1,0.198,0.4
O=c1c(OCCc2ccccc2)c(-c2ccco2)oc2ccccc12,0.794,5.6
Cc1ccccc1-n1c2nc(C#N)c(C#N)nc2c2c1nc(C(C)C)n1c3ccccc3nc21,1.64,4.5
O=C(COC(=O)c1ccccc1)Nc1ccc(OC(F)F)cc1,nt,-0.8
COc1cc(CN(C)Cc2ccccc2)cc(OC)c1O,nt,-5.1
CC(=O)OCC1OC(OC(C)=O)C(NC(=O)C(C)C)C(OC(C)=O)C1OC(C)=O (stereo not given),-0.958,-0.8
N#C/C(=C(/O)c1cccc2ccccc12)c1nc2ccccc2[nH]1,0.424,-2.0
COc1ccc(O)c(C(=O)c2cnn(C(=O)c3ccc4c(=O)n5c(nc4c3)CCC5)c2)c1,nt,-0.9
CCc1ccccc1Nc1nc(N)nc(Cn2cnc3ccccc32)n1,nt,2.1
CC(C)(C)NC(=O)Cn1nc(-c2cc3c(s2)CCCC3)oc1=O,-0.289,1.9
CC(O)Cn1c2ccccc2c2ccccc21 (stereo not given),2.1,-4.5
CCC(=O)Nc1ccc(NC(=O)c2ccc(F)cc2)nc1,-0.742,1.4
CCN(CC)CC1OCC2(CO1)COC(CN(CC)CC)OC2 (stereo not given),nt,-1.4
CCCn1c2ccccc2c2cnn(CC(=O)OC)c(=O)c21,-0.76,1.3
COc1ccccc1NC(=O)Cc1nc(CSc2nncn2C(C)C)cs1,nt,-0.6
Cc1cc(C(=O)COC(=O)C23CC4CC(CC(C4)C2)C3)c(C)n1-c1nccs1,nt,1.2
O=C(c1ccccc1)N1c2ccccc2OC1c1ccc2c(c1)OCO2 (stereo not given),nt,-1.1

(listing goes on)
structure,KSHV LANA nucl,Ab BasE inh
CC(C)Oc1cccc(C(=O)Nc2ccccc2)c1,-0.921,-2.8
O=C(O)Cc1ccsc1,nt,0.8
Cc1ccc(C(=O)NC2CCSC2=O)cc1 (stereo not given),0.0105,-1.5
Cc1ccc(CC/C=N/NC(N)=S)o1,0.155,4.2
N[C@@H](Cc1ccc(O)c(O)c1)C(=O)O,0.407&0.225&0.493&0.05,-1.1&7.4
CCCCN(CC)C(=O)c1ccc(Cl)c(Cl)c1,-0.093,-2.9
C=CCNC(=S)N(Cc1ccccc1O)CC1CCCO1 (stereo not given),nt,1.0

Molecules from the list above with a cyano group:
structure,KSHV LANA nucl,Ab BasE inh
CC(C)(C)c1ccc(Cn2cnc(C#N)c2C#N)cc1,-0.077,nt
CC(C)(C)S(=O)(=O)/C(C#N)=C/Nc1ccc(Cl)cn1,-0.249,1.1
Cc1ccccc1-n1c2nc(C#N)c(C#N)nc2c2c1nc(C(C)C)n1c3ccccc3nc21,1.64,4.5
N#C/C(=C(/O)c1cccc2ccccc12)c1nc2ccccc2[nH]1,0.424,-2.0
